High-throughput results: PubChem BioAssay, National Center for Advancing Translational Sciences (NCATS)
VDR inh: inhibitors of human vitamin D receptor; P11473; VDR-SRC2-3 peptide fluorescence polarization, 2 h; Potency, µM, for the others: max response, negative = inhibition, hits mostly inhibitors; actives 0.93% (n = 400,000); active = well fitted inhibition curve with a large enough effect; inconclusive = small, poorly fitted or top-dose-only effect, or another doubt; inactive = no such curve, though single readings can be large or run the other way; note: series mostly up to about 120 µM
Target sequence (P11473 whole entry, looked up): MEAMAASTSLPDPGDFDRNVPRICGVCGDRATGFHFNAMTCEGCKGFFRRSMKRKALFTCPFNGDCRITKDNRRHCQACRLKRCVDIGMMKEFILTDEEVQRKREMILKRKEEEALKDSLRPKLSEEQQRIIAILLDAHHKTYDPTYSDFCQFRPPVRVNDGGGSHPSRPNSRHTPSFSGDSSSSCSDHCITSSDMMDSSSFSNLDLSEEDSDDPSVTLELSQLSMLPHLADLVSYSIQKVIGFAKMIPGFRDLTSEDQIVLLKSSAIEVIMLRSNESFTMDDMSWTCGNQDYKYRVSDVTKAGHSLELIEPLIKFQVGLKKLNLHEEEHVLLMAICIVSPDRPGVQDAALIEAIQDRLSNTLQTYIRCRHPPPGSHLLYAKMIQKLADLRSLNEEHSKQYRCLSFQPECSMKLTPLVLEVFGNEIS
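VDR–SRC2-3 interaction, FP format. Cmpds 23 nl via pintool, brief spin, 2 h ambient incubation.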
* = called active by the depositor; ? = inconclusive; & = joins results of further samples. % is set by controls: 0 for no effect and ±100 for the full control effect; potency is the fitted concentration of half-maximal effect. An excerpt, so the mix of outcomes need not match the whole.

SMILES	VDR inh
O=C1CC(N2CCN(S(=O)(=O)c3cccc(C(F)(F)F)c3)CC2)C(=O)N1Cc1ccccc1 (centres undefined)	16.8%
COc1ccc(C2CC(=O)Nc3ccccc3S2(=O)=O)cc1OC (centres undefined)	8.2%
CCOc1ccc(OCc2cccc(C(=O)N/N=C/c3cccnc3)c2)cc1	-15.1%
CCN1CCCC1CNS(=O)(=O)c1ccc(C(=O)Nc2ccccc2)cc1 (centres undefined)	3.9%
CCOCCCn1cnc2c(c1=O)c1nc3ccccc3nc1n2-c1ccc(C)cc1	5.3%
CCC(=O)O[C@]1(C(=O)CCl)[C@@H](C)CC2C3C[C@H](F)C4=CC(=O)C=CC4(C)[C@@]3(F)C(O)CC21C (some centres undefined)	-4.2%
COCCNC(=O)c1c[nH]c2ccc(S(=O)(=O)N3CCc4ccccc43)cc2c1=O	-7.1%
COc1ccccc1/C=C1\S/C(=N/NC(=O)c2cccc(Br)c2)NC1=O	-14.8%
CCOC(=O)CN1C(=O)S/C(=C\c2ccc(-c3cccc(C(=O)O)c3C)o2)C1=O	13.4%
Cc1cc(C)c(C#N)c(SCC(=O)N(C)C2CCCCC2)n1	-19.3%
Cc1nc2ccn(Cc3cccnc3)c(=O)c2cc1C(=O)N1CCN(c2ccccc2F)CC1	-2.7%
Cc1csc(SCCn2c(N3CCOCC3)nc3c2c(=O)[nH]c(=O)n3C)n1	-2.4%
CC(C)C[C@@H](COc1ccccc1)N1CCN(C)CCC1=O	-16.3%
COc1ccc(NC(=S)c2ccncc2)cc1	-19.7%
COCCn1c(C)cc(C(=O)COC(=O)Cc2n[nH]c(=O)c3ccccc23)c1C	-1.7%
CN1c2ccccc2-c2ccccc2S1(=O)=O	-2.4%
Cc1cc2nc3c(=O)[nH]c(=O)nc-3n(C)c2cc1C=O	-29.0%
COc1cccc(C2=NOC(C(=O)N3CCc4ccccc4C3)C2)c1 (centres undefined)	-10.8%
COc1ccccc1C1C(C#N)=C(N)Oc2c1oc(CO)cc2=O (centres undefined)	7.6%
CCN(CC(=O)NCc1ccc(F)cc1)C(=O)/C=C/c1cccs1	10.7%
COc1cc(C(=O)NCC(=O)NCCSc2ccc(Br)cc2)cc(OC)c1OC	-8.7%
COC(=O)C1=C(C)N(CCCC(=O)O)C(=O)NC1c1ccc(-c2ccccc2)cc1 (centres undefined)	-16.1%
O=C(Cn1ncc2c3ccccc3n(Cc3ccc(F)cc3)c2c1=O)NCc1cccs1	2.6%
CCOC(=O)C1(Cc2cccc(OC)c2)CCN(Cc2ccc3c(c2)OCCO3)CC1	-10.9%
Cc1ccc(NC(=S)Nc2ccc(S(=O)(=O)N3CCOCC3)cc2)cc1S(=O)(=O)N1CCOCC1	-13.9%
CC(CCc1ccccc1)NCC(O)c1cccc([N+](=O)[O-])c1 (centres undefined)	-9.4%
NC(=O)COC(=O)c1ccccc1SCC(=O)NC1CCCCCC1	-0.3%
COc1cccc(/C=N/Nc2ncnc3c2[nH]c2ccc(C)cc23)c1OC	-18.4%
COc1cc2[nH]c(=O)n(CCC(=O)NCCC(C)C)c(=O)c2cc1OC	-9.3%
CC(=O)Nc1ccnn1C1CCN(C(=O)c2cccc(C)c2C)CC1	-6.5%
COc1ccc(-c2c[n+](CC(=O)c3cccs3)c3n2CCC3)cc1	-25.7%
Cc1nc(CNS(=O)(=O)c2cccnc2)cs1	-14.3%
CC(CCc1ccccc1)NC(=O)Cn1c(=O)nc(-c2ccccc2)c2cc(Cl)ccc21 (centres undefined)	-0.4%
Cc1cc(C)c(CN2CCN(CCCn3ccc(NC(=O)OCc4ccccc4)nc3=O)CC2)c(C)c1	-16.7%
Cc1ccc(C)c(N2CCN(CCN3CCCCC3)CC2)c1	-13.8%
CCOC(=O)[C@@H]1[C@H]2COc3cc(OC)ccc3[C@@H]2N2C(=O)N(c3cccc(C)c3)C(=O)[C@]12C	-7.0%

Rewritten field by field: four of the compounds above.
> NC(=O)COC(=O)c1ccccc1SCC(=O)NC1CCCCCC1
  VDR inh: -0.3%
> COc1cccc(/C=N/Nc2ncnc3c2[nH]c2ccc(C)cc23)c1OC
  VDR inh: -18.4%
> COc1cc2[nH]c(=O)n(CCC(=O)NCCC(C)C)c(=O)c2cc1OC
  VDR inh: -9.3%
> CC(=O)Nc1ccnn1C1CCN(C(=O)c2cccc(C)c2C)CC1
  VDR inh: -6.5%

Later entries
SMILES	VDR inh
CCOC(=O)N/N=C/c1cc(C)n(-c2ccccc2)c1C	-7.4%
O=C(Nc1ccccc1C(=O)N1CCCC1)c1ccc(Cl)c([N+](=O)[O-])c1	-8.2%
O=S(=O)(N/N=C\c1ccccc1O)c1ccc(Cl)cc1	-23.5%
Cc1cc2c(=O)[nH]cnc2s1	-9.6%
CCc1ccc(C2C(C(=O)Nc3ccccc3OC)=C(C)Nc3c(C(=O)Nc4ccc(C)cc4)cnn32)cc1 (centres undefined)	7.7%
Cc1nc(N2CCN(c3ccccn3)CC2)c2c(C)c(C(=O)Nc3ccccc3F)sc2n1	-15.2%
Cc1cc2c(cc1S(=O)(=O)Nc1ccc(OC(F)(F)F)cc1)OCC(=O)N2	10.3%&17.7%
O=C(CCCn1cnc([N+](=O)[O-])n1)Nc1ccc(Cl)cc1Cl	-14.5%
CCOC(=O)c1cc2c(C)nn(-c3ccccc3)c2s1	7.3%
O=C(O)C(Cc1ccccc1)NS(=O)(=O)c1ccc(Cl)cc1 (centres undefined)	-16.0%
N#CC(c1ccc(Cl)cc1)c1ccc2c(C(F)(F)F)cc(C(F)(F)F)nc2n1 (centres undefined)	-3.3%
CN1CCN(c2ccnc(-c3ccccc3C(F)(F)F)n2)CC1	-18.8%
O=C(c1ccc(CNS(=O)(=O)c2cccc(Cl)c2)cc1)N1CCCC1	-0.3%
O=c1[nH]c(NCCO)nnc1Cc1ccccc1	-6.0%
COc1ccc(Br)cc1Cn1nnc(C(=O)Nc2ccc(C)cc2C)c1N	0.4%
COc1ccc(O)c(C=Nc2cc(NC(C)=O)c(Cl)cc2Cl)c1	-19.1%
CC(C)(C)OC(=O)NCC(=O)NNC(=O)C(C(=O)OCc1ccccc1)c1ccccc1 (centres undefined)	-3.7%
CCN(C(=O)CSc1nc2nc(C)cc(C)n2n1)c1ccccc1	-6.4%
Cc1ccc(S(=O)(=O)N2CCN=C2SCc2cccnc2)cc1	-17.8%
Nc1cc(=O)[nH]c(SCC(=O)NC2CCCCCCC2)n1	20.8%
Cc1ccc(C)c(C(=O)COC(=O)c2ccccc2N2C(=O)C3C4CCC(C4)C3C2=O)c1 (centres undefined)	-7.6%
CN(Cc1cc(Cl)cc(Cl)c1O)Cc1c(O)ccc2ccccc12	7.3%
Cc1cc2c(cc1C)NC(CC(=O)Nc1cccc(Cl)c1)C(=O)N2 (centres undefined)	9.8%
CCC(C)NC(=O)Cn1nc(Cc2ccncc2)c2ccccc2c1=O (centres undefined)	16.2%
CCC(=O)Nc1ccc(NC(=S)NC(=O)Cc2ccccc2)cc1	-14.6%
O=C(CSCc1ccccc1)Nc1cc([N+](=O)[O-])ccc1F	-18.1%
O=C(O)c1ccc(NC(=O)c2cccc(S(=O)(=O)Nc3ccc(C(=O)O)cc3)c2)cc1	-20.1%
COc1c(Cl)cc(C(=O)Nc2ccccc2C(=O)O)cc1Cl	-16.9%
COc1ccc(NC(=O)COC(=O)CCC(=O)c2cccs2)cc1OC	6.1%
FC(F)Oc1ccccc1NC(=S)Nc1cccnc1	-9.2%
Cn1c(=O)n(CC(=O)NC2CCCCC2)c(=O)c2ccccc21	9.1%
Cc1ccc(C(C)NC(=O)c2c(-c3ccccc3)noc2C)cc1C (centres undefined)	7.6%
Clc1cccc(Sc2ccc(-c3ccccn3)s2)c1	-3.7%
C[C@@H](OC(=O)N(C)Cc1ccccc1)[C@H]1O[C@]2(C)CCCC[C@H]1O2	-12.1%
O=C(NCCOc1ccc(F)cc1)C1CCN(S(=O)(=O)c2ccccc2)CC1	1.3%
CC(C)c1ccc(C(=O)NCc2ccc(Cl)cc2)cc1	-0.7%

11 compounds out of the list, sorted by count of non-hydrogen atoms, highest first.
SMILES	VDR inh
Cc1ccc(C)c(C(=O)COC(=O)c2ccccc2N2C(=O)C3C4CCC(C4)C3C2=O)c1 (centres undefined)	-7.6%
O=C(O)c1ccc(NC(=O)c2cccc(S(=O)(=O)Nc3ccc(C(=O)O)cc3)c2)cc1	-20.1%
O=C(NCCOc1ccc(F)cc1)C1CCN(S(=O)(=O)c2ccccc2)CC1	1.3%
COc1ccc(NC(=O)COC(=O)CCC(=O)c2cccs2)cc1OC	6.1%
Cc1ccc(C(C)NC(=O)c2c(-c3ccccc3)noc2C)cc1C (centres undefined)	7.6%
C[C@@H](OC(=O)N(C)Cc1ccccc1)[C@H]1O[C@]2(C)CCCC[C@H]1O2	-12.1%
Cn1c(=O)n(CC(=O)NC2CCCCC2)c(=O)c2ccccc21	9.1%
COc1c(Cl)cc(C(=O)Nc2ccccc2C(=O)O)cc1Cl	-16.9%
Nc1cc(=O)[nH]c(SCC(=O)NC2CCCCCCC2)n1	20.8%
CC(C)c1ccc(C(=O)NCc2ccc(Cl)cc2)cc1	-0.7%
Clc1cccc(Sc2ccc(-c3ccccn3)s2)c1	-3.7%

(listing goes on)
SMILES	VDR inh
CNC(=S)N(CCc1c(C)[nH]c2ccc(Cl)cc12)Cc1cccnc1	?
COC(=O)c1ccc(NC(=O)c2cccc(C)c2[N+](=O)[O-])cc1	-3.4%
Cc1cccnc1NC(=O)Nc1cccc(Cl)c1	-2.8%
Cc1cn2c(=O)cc(COC(=O)c3ccc(NC(=O)c4ccccc4C)cc3)nc2s1	-3.4%
COc1cccc(C(=O)NC2C(=O)N3C(C(=O)O)=C(COC(C)=O)CSC23)c1 (centres undefined)	?
Cc1ccc(Cl)cc1N1CCN(C(=O)c2cccn2-c2nnc(N3CCCCC3)s2)CC1	-0.4%
Cn1c(N2CCN(C(=O)NC34CC5CC(CC(C5)C3)C4)CC2)nc2ccccc21	-3.7%
O=C(CNCc1ccco1)Nc1cccc(S(=O)(=O)N2CCCCC2)c1	-12.2%
Cc1c(S(=O)(=O)O)oc2c1C(=O)C(=O)c1c-2ccc2c1CCCC2(C)C	8.91µM*
COCCOc1ccc(C(F)(F)F)cc1NC(=O)COC(=O)C1=COCCO1	-0.6%
Cc1ccc2c(c1)NC(=O)C(CC(=O)NCCCN1CCCCC1C)O2 (centres undefined)	-27.8%
COCCn1c(SCC(=O)NC2CCCCC2)nc2c(c1=O)SCC2	-16.0%
CC(C)c1ccc(C2(C)NC(=O)N(CC(=O)N3CCN(C(=O)c4cccs4)CC3)C2=O)cc1 (centres undefined)	-11.6%
CC(C)C[C@H]1CN=C(Nc2ccccc2)N1CCC1CCCC1	-4.5%
CC1CC1c1ccc(/C=C(\C#N)C(=O)Nc2cccc(Cl)c2Cl)o1 (centres undefined)	7.2%
COc1cccc(OCCCn2cc(/C=C3/C(=N)N4C=C(C)SC4=NC3=O)c3ccccc32)c1	2.8%
Cc1ccc(NC(=O)N2CCN(Cc3nc4ccc(C)cc4o3)CC2)cc1	9.8%
O=C(CC(O)c1ccncc1)c1ccccc1O (centres undefined)	?
CCC1CC=CC2C1C(=O)N(Cc1ccccc1)C2c1ccc(OC)c(Cl)c1 (centres undefined)	11.2%
Cc1ccc(NC(=O)C2CC(=O)N(c3ccc4c(c3)OCCO4)C2)cc1S(=O)(=O)N1CCCCCC1 (centres undefined)	-14.7%
CCOC(=O)C1CCN(C(=O)c2cc3cc4ccc(OC)cc4nc3o2)CC1	-12.1%
NS(=O)(=O)c1ccc(NCc2ccccc2OCc2ccc(F)cc2)cc1	-8.0%
COc1cccc(C(=O)N2c3ccc(C)cc3C(C)(c3ccccc3)CC2(C)C)c1 (centres undefined)	1.4%
COc1ccccc1CNC(=O)CCCCn1c(=O)c2ccccc2n(CC(=O)Nc2cc(Cl)ccc2C)c1=O	-8.7%
COc1ccc(CCC(=O)NCc2cccc(C(F)(F)F)c2)cc1	21.1%
Cc1nonc1CN(C)C(=O)c1ccc(OC2CCN(C(=O)c3cccnc3)CC2)cc1	-1.4%
COCCN(CC(=O)NCC1CCCO1)C(=O)CCC(=O)Nc1ccccn1 (centres undefined)	35.5µM*
CCOc1ccc(NC(=O)CSc2nnc(Cn3cnc4ccccc43)n2C)cc1	-1.3%
Cc1ccc(S(=O)(=O)c2[nH]c(-c3ccccc3)nc2SCC(N)=O)cc1	8.2%
O=C(CSc1nc2ncccc2o1)Nc1cccc(C(F)(F)F)c1	-0.4%
CCC(C(=O)O)N1C(=O)/C(=C/C(C)=C/c2ccccc2)SC1=S (centres undefined)	?
CCOC(=O)Nc1c(C(=O)OC)[nH]c2cc(OC)ccc12	-6.6%
O=C(NCCN1CCOCC1)C(=O)NCc1ccc2c(c1)OCO2	-6.2%
Cc1cc(C)cc(NC(=O)C2CC3CCC2C3)c1 (centres undefined)	8.5%
O=C(CCn1c(=O)c2cccn2c2ccc(F)cc21)NCc1ccccc1F	12.1%
O=C(NCc1ccccc1)c1ccc(Cl)c(S(=O)(=O)N2CCCC2)c1	-10.2%
Cc1c(Cl)cccc1NC(=O)CNC(=O)CCCc1nc2ccccc2c(=O)[nH]1	0.0%
CCN1CCN(c2ccc(S(=O)(=O)N3CCCCC3)cc2NC(=O)Cc2ccc(OC)cc2)CC1	-6.4%
CCn1nc(C)c(Br)c1-c1nc(CS(=O)(=O)c2ccsc2)no1	-8.4%
O=C1COc2ccc(C(=O)COC(=O)c3cnc(Cl)c(Cl)c3)cc2N1	1.5%
Cc1cc(/C=C(\C#N)C(=O)NCc2cccs2)c(C)[nH]1	11.7%
CCCc1cc(=O)[nH]c(/N=C(/NC(=O)c2ccccc2)Nc2ccc3c(c2)OCCO3)n1	9.8%
CN1C(=O)C(C)(C)c2cc(S(=O)(=O)N3CCN(c4ccccc4F)CC3)ccc21	-12.0%
COCCNc1cc(C)nc2c(-c3ccccc3OC)c(C)nn12	-16.7%
CC(=O)N1N=C(c2ccc(C)cc2)OC1c1ccc(C)cc1 (centres undefined)	-7.9%
O=C(Nc1nc(-c2ccccc2)cs1)c1cccc(S(=O)(=O)N2CCN(Cc3ccccc3)CC2)c1	-2.5%
Cc1ccc(C2C(C(=O)c3cc4ccccc4o3)=C(O)C(=O)N2c2cc(C)on2)cc1 (centres undefined)	79.4µM*
